# Sa ugtP lethal = growth inhibition of S. aureus ugtP deletion strain | growth inhibition, % (concentration not given with the values) | S. aureus RN4220 ugtP deletion, OD600 growth, 16 h; some inactives read as strong as hits | AID 1259309 | hit rate 0.54% among 330,000;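 active = z-score under -3 and OD600 up to 0.15 on both plates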;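 also: plate controls were untreated wells for no effect and antibiotic for full effect; wells of about 80 µL received 100 nL stock; the first replicate is given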
# Mtb hypoxia rep = Mtb hypoxia fluorescent reporter inhibition. M. tuberculosis hypoxia-regulated fluorescent reporter, fluorescence. fluorescence inhibition, % (test concentration not listed). hit rate 0.1% among 300,000;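 active = 35 to 45% if threefold the growth effect, above 45% if 1.5-fold the growth effect; inactive = the rest, general growth blockers included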;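 also: wells of about 50 µL received 100 nL stock; 0% = vehicle wells and 100% = reference inhibitor wells; whole bacteria with a GFP reporter of the hypoxia response; strong numbers were not always called active; many hits fall short of the cut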
# PrP UTR inh = inhibition of PrP 5' UTR reporter expression | cell-based PrP 5' UTR mRNA reporter, plate reader | AID 488862 | inhibition, % (no concentration beside the values) | hit rate 0.35% among 340,000;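 active = every replicate at 50% or more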;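 also: 0 = median of the neutral control wells; tested in H4 reporter cells; numbers are from one replicate; inactives centre near -14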
# Bead autofluor = flagged as autofluorescent in microsphere protease counterscreen. fluorescence intensity (test concentration not listed). hit rate 3.1% among 360,000. compound autofluorescence counterscreen, microsphere flow cytometry; stronger effect = higher value;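 active = at least 3 SD above the mean of all compounds, about 16000 in these data; inconclusive = too few beads counted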;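 also: 100 nL of 1 mM stock went into each well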
# BJeLR viability = BJeLR cell viability loss. BJeLR (HRASV12) viability, CellTiter-Glo ATP luminescence, 48 h; reference of the scale not given here. inhibition, % (no concentration beside the values). hit rate 0.17% among 300,000. AID 1554;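 active = replicate mean above 50%; inconclusive = above 50% but judged a plate artefact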;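 also: 50 nL library stock added to about 25 µL; numbers are from one replicate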
# Sa RN4220 lethal = S. aureus RN4220 growth inhibition; inhibition, % (test concentration not listed); OD600, 16 h; hit rate 0.33% among 330,000; AID 1259311;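 active = z-score of -3 or lower and OD600 up to 0.18 on both plates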;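 also: plate controls were untreated cells for no effect and reference antibiotic for full effect; stock transfer was 100 nL into about 80 µL; one replicate is shown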
# Mtb hypoxia rep growth = recorded beside Mtb hypoxia rep, whose call it bears; growth inhibition, %; measured here: M. tuberculosis growth (absorbance);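 0% = vehicle and 100% = reference antibiotic; read after six days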
# Numbers without * were called inactive; ? = inconclusive; . = no result given.
SMILES,Sa ugtP lethal,Mtb hypoxia rep,Mtb hypoxia rep growth,PrP UTR inh,Bead autofluor,BJeLR viability,Sa RN4220 lethal
Cn1ncc(N=Cc2ccccc2O)c1C(=O)N1CCOCC1,-1,-3,9,-9,3233,-13,2.3
Cc1ccccc1C(=O)NC(=S)Nc1ccc(Cc2ccncc2)cc1,72,0,8,-4,2421,-14,-1.4
O=C(O)C(Cc1ccccc1)n1cnnn1 (stereo not given),2,7,3,-8,4234,3,4.1
CCNC(=O)NC(=O)CSc1ccc(S(=O)(=O)N2CCOCC2)cn1,5,4,6,-11,5586,.,3.3
Nc1nonc1-n1nnc(C(=O)N/N=C/c2ccccc2Br)c1CN1CCCC1,.,.,.,-7,3916,-1,.
CCCc1nc2ccccc2c(C(=O)OCc2nnc(-c3cc(OC)c(OC)c(OC)c3)o2)c1CC,-2,.,.,-1,4336,.,3.3
CC(O)c1nc2ccc(C(=O)O)cc2[nH]1 (stereo not given),6,15,5,5,4622,8,0.0
O=[N+]([O-])c1ccc2[nH]nc(-c3ccccc3)c2c1,-28,-4,5,-8,2423,1,-5.7
O=C1C=C(c2ccc3ccccc3c2)CC(c2ccc(Cl)cc2)C1 (stereo not given),-1,0,-4,.,.,.,-5.2
Cc1nc(NC2CCCCC2)c2nnn(Cc3ccccc3Cl)c2n1,-9,-8,-5,-16,4237,2,1.9
COc1ccccc1C(=O)Nc1ccncc1,0,-3,10,-7,3121,-17,2.9
O=C(O)CC/C(=C/c1cccc(NC(=O)c2ccccc2Cl)c1)c1nc2ccccc2s1,1,9,-2,-3,2913,.,17
NCCCC[C@@H]1NC(=O)c2cc([N+](=O)[O-])cc(F)c2NCCCC[C@@H](C(N)=O)NC(=O)CNC1=O,.,.,.,-24,3924,13,.
COc1ccc(C2CC(c3c(O)n(CCc4ccccc4)c(=O)[nH]c3=O)=NN2)cc1OC (stereo not given),-3,5,-5,-19,5960,4,4.0
O=C(CCS(=O)(=O)c1ccccc1)Nc1nccs1,-6,3,1,-10,6047,9,-7.5
CCOc1ccc(OCC)c(NC(=O)Cn2c(C)nc3ccccc3c2=O)c1,-3,-9,3,-6,4548,-2,-3.1
CSc1ccccc1OCc1cc(C(=O)NCCn2nc(C)cc2C)no1,-5,-4,-3,-1,4474,-9,0.3
COCCn1c(O)c(/C=N/NC(=O)CSC(=S)N2CCCC2)c(=O)[nH]c1=S,5,13,11,-9,3692,.,4.2
Cc1nc2ccccc2c(=O)n1N=Cc1cc(Br)cc(Br)c1O,14,8,14,.,.,.,-15
CC(=O)Nc1ccc(NC(=O)CN2CCCC(C)C2)c(Cl)c1 (stereo not given),5,-1,-2,-51,2945,-2,-10

# Rewritten with values under each structure: entries from further up
# Second line of a record – Sa ugtP lethal | Mtb hypoxia rep | Mtb hypoxia rep growth | PrP UTR inh | Bead autofluor | BJeLR viability | Sa RN4220 lethal
> O=C1C=C(c2ccc3ccccc3c2)CC(c2ccc(Cl)cc2)C1 (stereo not given)
  -1 | 0 | -4 | . | . | . | -5.2
> Cc1nc(NC2CCCCC2)c2nnn(Cc3ccccc3Cl)c2n1
  -9 | -8 | -5 | -16 | 4237 | 2 | 1.9
> COc1ccccc1C(=O)Nc1ccncc1
  0 | -3 | 10 | -7 | 3121 | -17 | 2.9
> O=C(O)CC/C(=C/c1cccc(NC(=O)c2ccccc2Cl)c1)c1nc2ccccc2s1
  1 | 9 | -2 | -3 | 2913 | . | 17
> NCCCC[C@@H]1NC(=O)c2cc([N+](=O)[O-])cc(F)c2NCCCC[C@@H](C(N)=O)NC(=O)CNC1=O
  . | . | . | -24 | 3924 | 13 | .
> COc1ccc(C2CC(c3c(O)n(CCc4ccccc4)c(=O)[nH]c3=O)=NN2)cc1OC (stereo not given)
  -3 | 5 | -5 | -19 | 5960 | 4 | 4.0
> O=C(CCS(=O)(=O)c1ccccc1)Nc1nccs1
  -6 | 3 | 1 | -10 | 6047 | 9 | -7.5
> CCOc1ccc(OCC)c(NC(=O)Cn2c(C)nc3ccccc3c2=O)c1
  -3 | -9 | 3 | -6 | 4548 | -2 | -3.1
> CSc1ccccc1OCc1cc(C(=O)NCCn2nc(C)cc2C)no1
  -5 | -4 | -3 | -1 | 4474 | -9 | 0.3
> COCCn1c(O)c(/C=N/NC(=O)CSC(=S)N2CCCC2)c(=O)[nH]c1=S
  5 | 13 | 11 | -9 | 3692 | . | 4.2
> Cc1nc2ccccc2c(=O)n1N=Cc1cc(Br)cc(Br)c1O
  14 | 8 | 14 | . | . | . | -15
> CC(=O)Nc1ccc(NC(=O)CN2CCCC(C)C2)c(Cl)c1 (stereo not given)
  5 | -1 | -2 | -51 | 2945 | -2 | -10

# Remaining list, next part.
SMILES,Sa ugtP lethal,Mtb hypoxia rep,Mtb hypoxia rep growth,PrP UTR inh,Bead autofluor,BJeLR viability,Sa RN4220 lethal
Cc1ccc(S(=O)(=O)Nc2ccc(NC(=O)Nc3cccc(C(F)(F)F)c3)cc2)cc1,34,6,1,-31,2200,12,43
COc1ccc(CN2C(=O)c3cccnc3C2=O)cc1S(=O)(=O)NC(C)C,2,3,-4,-15,3942,-2,-1.5
CCn1c(=O)c(CCC(=O)N2CCN(c3ccccn3)CC2)c(C)c2c(C)nn(-c3ccccc3)c21,-6,6,0,-14,5964,-13,2.2
O=C(O)CSc1nc2c(cnn2-c2ccccc2)c(=O)n1-c1ccc(Br)cc1,12,-5,3,-54,2339,-7,3.4
CC1=CC2=NC(=O)/C(=C/c3coc4ccc(Cl)cc4c3=O)C(=N)N2O1,-13,3,10,8,3355,0,2.1
Cc1ccc(C23CC4CC(CC(C(=O)NC(C(=O)O)C(C)C)(C4)C2)C3)cc1 (stereo not given),-2,-4,7,-9,3821,0,19
CCOc1ccc(/C=N/NC(=O)Cc2csc(Nc3cccc(C(F)(F)F)c3)n2)cc1,.,.,.,-9,2494,-2,.
COc1ccc(CCCC(=O)NCCc2ccccc2)c(C)c1,5,8,10,-21,3585,6,5.0
CN(C)C(=O)c1cc(C(=O)c2ccc(C(F)(F)F)cc2)c[nH]1,5,22,0,-34,3182,-11,1.7
Cc1ccc(S(=O)(=O)N2CCN(CC(=O)N(CC(C)C)c3c(N)n(CC(C)C)c(=O)[nH]c3=O)CC2)c(C)c1,-4,3,1,-5,2528,-9,0.9
O=C1CSC(c2ccccc2)N1CCc1ccccc1 (stereo not given),12,7,1,-19,3227,-10,3.4
C=CC[n+]1c(-c2ccc(OC)c(OC)c2)csc1NNC(=O)Nc1ccccc1,2,5,5,-1,9871,7,6.7
Cc1cccc(Nc2nnc(SCC(=O)Nc3ccccc3[N+](=O)[O-])s2)c1,13,5,5,-27,2096,-3,29
NS(=O)(=O)c1ccc(NC(=S)Nc2nn(Cc3ccc(Cl)cc3Cl)cc2Cl)cc1,-18,11,-3,-14,1983,-4,-12
O=C(c1ccc([N+](=O)[O-])cc1)N1CCN(C(=O)C2CCCCC2)CC1,8,-2,-5,-8,5654,-5,-0.1
COc1ccccc1NC(=O)Nc1nnc(CC(=O)Nc2cccc(C)c2)s1,-5,-11,-5,-9,3467,-8,-2.2
Cn1c(NNC(=O)C2CCCCC2)cc(=O)n(C)c1=O,2,-1,-2,-34,4663,-2,4.8
Cc1ccc(N2C(=O)C(Cc3ccc(O)cc3)NC2=S)cc1C (stereo not given),1,-4,-1,-9,2114,2,7.2
Cc1c(Nc2ccc(C=O)cc2)c(=O)n(-c2ccccc2)n1C,-1,2,1,-25,3582,-3,5.0
CCC1(C)Cc2ccccc2-c2nc(SC)[nH]c(=O)c21 (stereo not given),3,10,1,-21,4451,2,-1.6
CC1CN(C(=O)c2ccc(NS(=O)(=O)c3cccc(Cl)c3)cc2)CC(C)O1 (stereo not given),2,5,0,-22,5834,11,3.1
O=C(NN=Cc1ccc(N2CCOCC2)cc1)C1COc2ccccc2O1 (stereo not given),-4,6,0,.,.,.,-2.8
COc1cccc(NC(=O)CCc2nc(-c3cccs3)no2)c1,7,-6,-7,-2,4264,-2,1.5
Cc1ccc(C(=O)NC2CCN(CC(=O)Nc3ccccc3Cl)CC2)cc1,.,.,.,-37,3770,0,.
COc1ccc(C=NNc2nc(N3CCCCC3)nc(N3CCCCC3)n2)cc1[N+](=O)[O-],-5,-5,-8,.,.,.,5.3
COc1ccc(C(=O)/C=C/C(=O)N(CC(=O)NC2CCCCC2)Cc2cccs2)c(O)c1,13,10,12,-36,4741,12,16
CCN1C(=O)c2cccc3c(NC(=O)c4ccc(OC)c(OC)c4)ccc1c23,-3,2,6,-10,6069,0,-0.8
COc1ccc(C(C(=O)NC2CCCC2)N(Cc2cccs2)C(=O)c2ccn[nH]2)cc1OC (stereo not given),3,3,1,-1,4306,3,0.5
CCCCC(=O)N=c1sc2cc([N+](=O)[O-])ccc2n1C,9,-10,6,-3,4390,-15,3.3
CC1(c2ccc3c(c2)OCCCO3)NC(=O)N(CC(=O)Nc2cccc(C#N)c2)C1=O (stereo not given),4,-6,-5,-15,5081,.,2.5
O=C(NCc1ccc(C(F)(F)F)cc1)C1CC(c2ccc(C(F)(F)F)cc2)=NO1 (stereo not given),6,5,-2,-24,3621,-1,2.1
O=C(O)c1ccc(NC(=O)c2cn(-c3ccccc3)nc2-c2cccc(Cl)c2)cc1,-1,3,2,-18,3454,-1,6.8
COc1ccc2c(c1OC)C(=O)OC2CC(=NNC(N)=O)c1ccccc1 (stereo not given),3,-2,-2,.,.,.,3.9
Cc1ccc(N(CC(=O)Nc2cc(C)cc(C)c2)S(=O)(=O)c2c(C)noc2C)cc1,-9,-15,1,-13,5875,12,4.3
O=C(CN1CCCC1)NC(=O)NC1CCCC1,9,8,8,1,4259,8,2.1
O=C(Nc1ccc(O)c2c(=O)cc(-c3ccccc3Cl)oc12)c1ccccc1Cl,0,12,7,-19,2960,-16,-5.4
CCCCn1c(N)c(N(CCC(C)C)C(=O)c2cccc(-n3cnnn3)c2)c(=O)[nH]c1=O,2,9,-3,-20,5594,-6,1.3
Cc1ccc(SCC(=O)Nc2ccc3c(c2)C(=O)NC3=O)cc1,0,0,1,-20,4713,-3,4.9
CCOC(=O)C1CCN(C(=O)Cc2cccc3ccccc23)CC1,-3,4,3,-21,2869,-5,9.2
NC(=S)Nc1ccc(C(F)(F)F)cc1Cl,7,0,3,-17,4071,-9,0.5
CC(C)c1cc(C(=O)NC2CCCCC2)no1,5,.,.,-32,9478,-13,4.4
O=C(CCNC(=O)c1ccc([N+](=O)[O-])cc1)NNC(=O)c1ccncc1,1,23,17,-9,4518,3,0.3
CCCc1nn(C)c(C(=O)Nc2ccc(Cl)cc2)c1Cl,10,1,3,-10,2484,3,3.8
Cc1cccc(C)c1NC(=O)CN(C)C(=O)CCC(=O)N1CCOCC1,3,9,5,-22,3763,.,5.2
COc1ccc(CNC(=O)c2ccc(-c3ccccc3)cc2)cc1OC,1,7,12,1,2577,0,0.4
COc1ccc(-c2cc(C(F)(F)F)n3nc(C(=O)O)nc3n2)cc1,5,3,-1,-16,11006,12,9.3
O=C(CCCN=C1NS(=O)(=O)c2ccccc21)OCC(=O)c1ccc(F)c(F)c1,0,-2,5,-17,?,15,0.8
NS(=O)(=O)c1ccc(NC(=S)NC(=O)C2CCCC2)cc1,31,3,6,-26,6374,-1,0.8
CC(C)(C)c1cc(C(=S)N2CCN(CCO)CC2)cc(C(C)(C)C)c1O,3,6,5,3,23211*,2,4.8
O=C(CCCC(=O)Nc1ccc(Br)cc1)N/N=C/c1ccccc1,.,.,.,-10,5766,4,.
O=C(CCn1c(=O)c2ccccc2n(Cc2ccccc2)c1=O)NC1CCN(Cc2ccccc2)CC1,6,-9,6,9,5063,2,1.0
COc1ccc2c(C(=O)CN3CCC(C)CC3)c[nH]c2c1,-1,-9,6,-10,?,0,1.5
O=C(NCc1ccco1)/C(=C\c1cccs1)NC(=O)c1ccco1,10,7,6,6,2006,-5,3.1
CC12CC(c3ccccc3O1)N(C(=O)c1ccco1)C(=S)N2c1ccc(F)cc1 (stereo not given),15,7,3,-20,4095,-8,-3.7
CC1(C)Cc2c(C#N)c(N)sc(=S)c2CS1,5,.,.,-2,4128,0,8.6
